Assay outcomes from PubChem.
gsp ag: qHTS for Agonist of gsp, the Etiologic Mutation Responsible for Fibrous Dysplasia/McCune-Albright Syndrome: qHTS; gsp mutant cells, cAMP HTRF, 30 min; control for the full effect not named in the record; Potency, µM (titrated, usually from 76.9 µM), for inactives: top-dose activation (cAMP increase), most hits filed as activators; actives 0.13% (n = 340,000); AID 624287, 2012; active = well fitted activation curve with a large enough effect; inconclusive = small, poorly fitted or top-dose-only effect, or another doubt; inactive = no such curve, though single readings can be large or run the other way; cell line not stated here;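 also: phosphodiesterase inhibitor Ro 20-1724 added with compounds to block cAMP breakdown; potency is read from the fitted curve at half-maximal effect; nearly all actives have a fitted effect of over 60% in size; about a fifth of the inactives were tested at one dose only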
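Cells in DMEM/10% FBS with G418 were pretreated with compounds in DMSO plus […] (300 uM stock) for 30 min at 37C. cAMP was measured by HTRF (cAMP-d2 plus anti-cAMP antibody-K) after 30 min at room temperature.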
D2 potentiator: Beta-Arrestin HTS for Positive Allosteric Modulators of the Human D2 Dopamine Receptor: Potentiators. D(2) dopamine receptor (Homo sapiens), P14416. DiscoveRx D2 beta-arrestin cells, luminescence, 90 min; 100% = 57 uM dopamine signal. potentiation, % (test concentration not listed). actives 0.23% (n = 360,000). AID 624464, 2012; active = potentiation of 50% or more; inconclusive = 30% to 50%; inactive = 30% or less;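 also: compound concentration not given in the record; tested on top of an EC20 dose of dopamine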
Target sequence (P14416 whole entry, looked up): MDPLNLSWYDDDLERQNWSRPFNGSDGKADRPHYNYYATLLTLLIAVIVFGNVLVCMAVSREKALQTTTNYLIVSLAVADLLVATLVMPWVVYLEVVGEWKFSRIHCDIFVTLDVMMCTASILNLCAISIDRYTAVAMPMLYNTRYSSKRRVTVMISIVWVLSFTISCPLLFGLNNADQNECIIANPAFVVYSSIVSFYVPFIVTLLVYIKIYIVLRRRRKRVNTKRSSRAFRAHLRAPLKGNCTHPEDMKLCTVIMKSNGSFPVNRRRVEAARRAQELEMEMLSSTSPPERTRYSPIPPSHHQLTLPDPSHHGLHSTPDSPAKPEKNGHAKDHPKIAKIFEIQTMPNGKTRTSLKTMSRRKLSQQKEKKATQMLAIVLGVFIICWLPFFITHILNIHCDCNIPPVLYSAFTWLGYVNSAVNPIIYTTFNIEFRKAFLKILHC
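D2 cells co-treated with compound plus 50 nM dopamine (EC20) for 90 min at 37 deg C to detect potentiation. Beta-arrestin recruitment was read as enzyme-fragment luminescence after 1 h at ambient temperature. Full response was set by 57 uM dopamine.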
TRPV1 PAM: HTS Assay for Compounds that Act as Potentiators of the Vanilloid Receptor 1. potentiation, % at 8.33 µM. Transient receptor potential cation channel subfamily V member 1 (Homo sapiens), Q8NER1. actives 0.02% (n = 320,000). TRPV1-expressing cells, Fluo-8 calcium influx, capsaicin EC20 potentiation; host cell line not named in the record; control for the full effect not named in the record; active means potentiation above 80%; inconclusive means 30% to 80%; inactive means below 30%; also: 0% is about no effect
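TRPV1-expressing cells were cultured overnight at 35.5C and loaded with Fluo-8 calcium dye for 40 to 90 min at room temperature. After a 10 s baseline, compound was added and calcium influx was read kinetically for 3 min (ex 480/em 520 nm).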
gsp antagonist: qHTS for Antagonists of gsp, the Etiologic Mutation Responsible for Fibrous Dysplasia/McCune-Albright Syndrome: qHTS | gsp-mutant cells, cAMP HTRF, 30 min; control for the full effect not named in the record | Potency, µM (highest dose often 76.9 µM), for the others: at the highest dose activity change, negative = inhibition, actives largely listed as inhibitors | actives 0.4% (n = 340,000); active = falling curve of any shape with a large fitted effect; inconclusive = falling curve, mostly with a smaller effect; inactive = flat or rising curve; cell line not stated here;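 also: intracellular cAMP measured with PDE inhibitor Ro 20-1724 present during compound exposure; potency is read from the fitted curve at half-maximal effect; % is scaled to controls: 0 for no effect and ±100 for the full control effect; nearly all actives have a fitted effect of over 65% in size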
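Cells, 2000/well, grown 16–24 h in DMEM 10% FBS with 0.5 mg/ml G418, then compounds plus […] (300 uM addition stock), 30 min at 37C. cAMP read by HTRF (cAMP-d2 and anti-cAMP antibody-K in lysis buffer) after 30 min RT.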
Menin-MLL FL inh: qHTS Assay for Inhibitors Targeting the Menin-MLL Interaction in MLL Related Leukemias: Competition With Fluorescein Labeled MLL-derived Peptide; AID 1766, 2009; 290,000 tested, under 10 active; Fluorescence polarization, fluorescein-MLL peptide displacement from menin; FP activity change, % at 61.4 µM; inconclusive = falling polarisation curve, or a change in total fluorescence; inactive = total fluorescence flat and polarisation flat or rising; no compound was filed as active; the % refers to the polarisation; negative = inhibition;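 also: % of control where 0% means no effect; inhibitors lower the polarisation; unlabelled MLL peptide was the positive control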
Sfp inh: qHTS Assay for Inhibitors of Bacillus subtilis Sfp phosphopantetheinyl transferase (PPTase) | AID 1490, 2009 | Potency, µM, for the others: max response, negative = inhibition, most hits filed as inhibitors | actives 3.5% (n = 310,000) | Biochemical Sfp PPTase activity, qHTS | 4'-phosphopantetheinyl transferase ffp (Bacillus subtilis), Q9F4F7; active = well fitted inhibition curve with a large enough effect; inconclusive = small, poorly fitted or top-dose-only effect, or another doubt; inactive = no such curve, though single readings can be large or run the other way;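 also: the enzyme is Sfp with the accession as filed and its product quenches rhodamine fluorescence; potency is read from the fitted curve at half-maximal effect; 0% = enzyme reaction without inhibitor and -100% = no enzyme wells; top concentration of the series not given in the record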
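With Hepes-Na pH 7.6 buffer containing 10 mM MgCl2, Sfp (15 nM) modified BHQ-2-YbbR (12.5 uM) using rhodamine-CoA (5 uM). Two reads 30 minutes apart at 525/598 nm yielded each well's rate.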
ClpP mod: qHTS Assay for Activators of ClpP | ATP-dependent Clp protease proteolytic subunit (Bacillus subtilis (strain 168)), P80244 | Potency, µM (doses to about 57.5 µM), for the others: top-dose activity change, negative = active | AID 651965, 2013 | actives 1.9% (n = 340,000) | purified B. subtilis ClpP, FRET peptide cleavage, 20 min; active = well fitted falling curve with a large enough effect; inconclusive = small, poorly fitted or top-dose-only effect; inactive = no such curve, though single readings can be large or run the other way; also: potency is read from the fitted curve at half-maximal effect; the source files actives as falling curves though it sought activators and does not explain the sign; nearly all actives have a fitted effect of over 65% in size; many hits overshoot -100%
Target sequence (P80244 whole entry, looked up): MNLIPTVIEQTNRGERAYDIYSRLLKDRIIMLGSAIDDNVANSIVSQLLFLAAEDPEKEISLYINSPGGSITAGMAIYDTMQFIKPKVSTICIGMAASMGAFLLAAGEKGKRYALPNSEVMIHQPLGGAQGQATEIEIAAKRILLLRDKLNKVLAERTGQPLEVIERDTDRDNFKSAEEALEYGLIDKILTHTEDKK
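Purified B. subtilis ClpP, 10 microg/mL final in Tris/HCl pH8 with KCl, BSA, glycerol and Tween-20, cleaved an Abz/nitrotyrosine-quenched decapeptide. Fluorescence (ex 320, em 430) was read at 0 and 20 min at room temperature. Delta was normalized to 5.8 microM ADEP and DMSO/no-enzyme controls.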
An asterisk follows results filed as active; ? = inconclusive; / = not tested or not shown; [ ] = remark or other dose.

SMILES	gsp ag	D2 potentiator	TRPV1 PAM	gsp antagonist	Menin-MLL FL inh	Sfp inh	ClpP mod
CC(C)CC(OC(=O)c1ccco1)C(=O)NC1CCCCC1 (stereo unspecified)	3%[15.4 µM]	-5	-17	-2%	-3.2	3%	?
C/C(CC(=O)NC12CC3CC(CC(C3)C1)C2)=N\NC(=O)Cc1cccs1	-34%[inhibitor]	1	-2	2%	7.9	11%	-0.9%
Cc1ccc(-n2ccnc(SCC(=O)NC3CCCC3)c2=O)cc1F	9%	1	0	10%	/	/	?
CCN1CCN(S(=O)(=O)c2cccc3nsnc23)CC1	0%	-9	-1	8%	2.0	9%	-1.4%
COC(=O)c1cc(NC(=O)C2CC=CCC2C(=O)O)cc(C(=O)OC)c1 (stereo unspecified)	10%	-4	-5	7%	2.3	27%	-6.7%
CCOC(=O)c1nc(N2CCN(C(=O)OCC)CC2)c2c3c(sc2n1)CCCC3	0%	2	3	-20%	0.5	-7%	?
COc1ccc(CCNC(=O)C2CCCN2C(=O)Nc2ccc(C)cc2)cc1OC (stereo unspecified)	0%	-2	?	10%	-4.4	2%	0.1%
O=C1CC(N2CCN(c3ccccc3)CC2)C(=O)N1Cc1ccc(Cl)cc1 (stereo unspecified)	8%	-4	-3	8%	7.6	-15%	2.9%
COc1cc2c(cc1OC)C(c1cc3cc(C)ccc3[nH]c1=O)N(C(=O)c1ccco1)CC2 (stereo unspecified)	4%[15.4 µM]	-8	8	7%	1.1	6%	1.2%
c1ccc2c(c1)[nH]c1c(N3CCOCC3)ncnc12	16%	3	14	?	-1.6	1%	-14%
COC(=O)c1c(C)oc(C)c1S(=O)(=O)NCC1CC1	9%[15.4 µM]	-5	/	11%	-0.5	-4%	0.8%
Cc1cc(=O)n2c3c(c4c(cc13)c(CN(C)C)cc(=O)n4C)OC2	5%	7	/	-4%	/	/	?
Cc1ccc(OCCCCCCN2CCNCC2)cc1	5%[15.4 µM]	-22	/	-7%	/	/	-2.3%
Cc1ccc2c(c1)S(=O)(=O)N(C)C(c1ccccc1)=C2	-9%	-3	/	-13%	/	/	0.9%
COc1ccc(NC(=O)CN2CCC(NC(=O)c3ccco3)CC2)c([N+](=O)[O-])c1	2%[15.4 µM]	-7	0	-1%	0.2	3%	/
CC(C)c1nc(NCCO)c(C#N)c2c1CCCC2	11%[15.4 µM]	-6	-11	8%	4.0	-9%	/
Cc1ccc2[nH]c3c(=O)n(CC(=O)N4CCN(C)CC4)ncc3c2c1	3%	-3	-4	4%	-1.9	11%	4.3%
Cc1ccc(N/N=C(\Cc2nc3ccccc3[nH]2)c2ccccc2)cc1	-5%	-7	2	19%	11	-9%	-8.2%
COc1ccc(OC)c(-n2c(C)ccc2-c2ccc(S(C)(=O)=O)cc2)c1	-8%	-19	0	-13%	1.6	-12%	28µM*
Cc1cc(-c2csc(N)n2)c(C)n1Cc1ccccc1	-8%[15.4 µM]	-7	-5	-14%	?	-99%	0.9%
O=C(Nc1ccn(Cc2ccccc2F)n1)c1ccc(COc2ccccc2Cl)cc1	-2%	-6	-2	7%	0.0	3%	-4.2%
COc1ccc(/C=C/C(=O)ONC2=NCCCCC2)cc1OC	-7%[15.4 µM]	23	-1	14%	-1.4	10%	1.8%
CC(C)NC(=O)NC(=O)COC(=O)c1cccc(OC(F)F)c1	17%	-3	3	4%	0.4	-5%	-1.7%
Cc1nn(Cc2ccccc2)c(C)c1NC(=O)CCCn1nc(C)c([N+](=O)[O-])c1C	-1%	3	-7	3%	9.1	13%	28µM*
O=C(Cn1nnc(-c2ccc(Cl)cc2)n1)NCCC1=CCCCC1	?	3	1	7%	6.2	18%	-13%
Continuation:
SMILES	gsp ag	D2 potentiator	TRPV1 PAM	gsp antagonist	Menin-MLL FL inh	Sfp inh	ClpP mod
O=C(O)/C=C/C(=O)Nc1ccccc1C(=O)OCC(=O)c1ccc2c(c1)OCCO2	0%[15.4 µM]	4	2	-28%	0.6	5%	/
CCCCSCc1nc2ccccn2c1Br	19%	1	-6	3%	4.3	-2%	/
COCCN(C(=O)CCc1ccccc1OC)c1nnc(-c2cccnc2)s1	9%	-3	-2	?	-0.5	-9%	-1.7%
Cn1c(=O)c2c(nc(CN3CCOCC3)n2CC(O)CO)n(C)c1=O (stereo unspecified)	22%	-10	-20	11%	1.0	5%	-3.7%
CCCN(CC1CC1)C(=O)COC(=O)c1oc2ccc(OCC)cc2c1C	-13%	-7	2	-27%	/	/	4.5%
OCCC1CN(Cc2nc(-c3ccccc3)cs2)CCN1C1CCCC1 (stereo unspecified)	25%	-23	4	14%	0.3	-4%	0.1%
CCOC(=O)c1cnc2c(C)c(-c3ccccc3)[nH]n2c1=O	0%	-7	?	4%	0.7	15%	69%
CCOC(=O)CN(C(=O)CSc1nnc2c(n1)[nH]c1ccc(OC)cc12)c1ccc(F)cc1	-30%[inhibitor]	-27	-3	-9%	-2.2	-13%	0.8%
COc1cc(C(=O)NCCCNc2nc3cc(C)c(C)cc3cc2C#N)cc(OC)c1OC	-27%	-6	1	-16%	1.3	79µM*	/
CS(=O)(=O)c1ccc2nc(NC(=O)CC3CCCC3)sc2c1	-27%	3	?	-1%	-2.3	-12%	-2.2%
COc1ccc(S(=O)(=O)NC(C(C)C)C(C)C)cc1OC	-29%	-16	-4	5%	1.9	10%	1.8%
CC(C)NC(=S)N1CCC(Cc2ccccc2)CC1	-30%	-2	-16	-1%	-2.5	2%	/
CC(C)c1ccc(CCNC(=O)c2cccc(S(=O)(=O)N3CCN(C)CC3)c2)cc1	?	13	28	-8%	/	4%	-8.0%
Cc1ccc(CCNC(=O)c2nc(CS(=O)(=O)c3ccc(Cl)cc3)no2)cc1	-61%[inhibitor]	6	-6	?	14	6%	1.8%
O=S(=O)(Nc1nnc(C(F)(F)F)s1)c1ccc(Cl)cc1	12%	-6	10	-7%	2.2	18%	-1.5%
CCOC(=O)C1=C(C)N=C2SCCC(=O)N2[C@@H]1c1cccs1	1%[15.4 µM]	8	-5	3%	0.9	8%	0.2%
CC1=C(C)C(=O)N(CCC(=O)O)C1=O	-8%	-3	/	10%	3.1	2%	0.7%
O=C(O)c1ccc(N2C(=O)/C(=C/C=C/c3ccccc3)SC2=S)cc1	-42%[inhibitor]	1	-2	-24%	11	6%	1.3%
O=C(Nc1ccc(F)c(Cl)c1)NC1CC1	-131%[inhibitor]	0	-10	18%	2.4	-12%	-0.3%
O=C(O)c1ccccc1C(=O)c1ccc(Sc2ccc(Cl)cc2)c([N+](=O)[O-])c1	-41%[inhibitor]	-3	9	-13%	1.2	14%	/
O=C(NC1CCC(O)CC1)c1ccc2c(c1)S(=O)(=O)N=C1CCCCCN12 (stereo unspecified)	-33%[inhibitor]	11	-3	-1%	/	/	2.2%
COCCN(C(=O)CN1CCN(S(=O)(=O)c2ccc(F)cc2)CC1)c1c(N)n(Cc2ccccc2)c(=O)[nH]c1=O	0%	-21	7	25%	6.5	8%	28%
Cc1ccc(N2CC(C(=O)Nc3cccnc3)CC2=O)cc1C (stereo unspecified)	-4%[15.4 µM]	-3	5	4%	-1.3	18%	/
CCOc1ccc(C(=O)NCc2ccc3c(c2)OCO3)cc1OCC	10%	0	-4	7%	2.3	16%	-2.4%
CC(=O)n1nc(-c2ccc(C)cc2)nc1NCc1ccco1	-3%[15.4 µM]	0	-7	-17%	0.3	17%	/
Following part
SMILES	gsp ag	D2 potentiator	TRPV1 PAM	gsp antagonist	Menin-MLL FL inh	Sfp inh	ClpP mod
COc1ccc2c(CC(=O)OCC(=O)Nc3ccc(S(N)(=O)=O)cc3)coc2c1	-36%[inhibitor]	-10	-8	3%	5.4	6%	-5.0%
Cc1ccsc1C(=O)OCc1nc2ccsc2c(=O)[nH]1	?	-17	-9	5%	/	/	-3.2%
CCOc1cc(/C=N/NC(=O)C(C)Sc2ccccc2)ccc1O (stereo unspecified)	5%	-16	4	9%	1.1	17%	-10%
Cc1ccc(C(=O)CSc2nc3ccccc3c(=O)[nH]2)cc1C	3%	-3	-8	-14%	-1.4	-24%	/
COc1ccc(OCc2cc(C(=O)NC3CCOCC3)no2)c2ccccc12	-35%[inhibitor]	0	?	-28%	/	3%	-5.7%
COc1ccccc1N(C)S(=O)(=O)c1ccc(C(=O)OCC(=O)N2CCC2)cc1	-10%	-1	-8	0%	-1.8	6%	/
C=CCN(c1ccccc1)S(=O)(=O)c1cccc(C(=O)Nc2ncccc2C)c1	4%	15	-2	4%	/	/	3.1%
Cc1ccc2[nH]c(=O)c(CN(CC3CCCO3)C(=S)Nc3ccccc3)cc2c1 (stereo unspecified)	0%	-5	-10	-10%	0.6	-7%	-6.9%
COc1ccccc1N1CCN(CC(=O)NCC2CCCO2)CC1 (stereo unspecified)	23%	-32	-5	-7%	2.1	-22%	-3.0%
CC(=O)Nc1ccc(Nc2cc(C(C)C)nc3c(-c4ccccc4)c(C)nn23)cc1	-2%	-14	-25	-14%	1.9	7%	4.4%
Cc1noc(C)c1COc1cccc(C(=O)Nc2ccc(Br)cc2F)c1	12%	-22	/	9%	/	/	-4.1%
CC(C)(C)c1ccc(/C=C/C(=O)NC2=NCCS2)cc1	-23%	-3	-10	-17%	5.1	1%	-9.2%
Cc1nc2n(COCCO)cnn2c(=O)c1Br	?	-2	-1	10%	-2.9	21%	-0.2%
CCC(=O)c1cc2c(cc1NC(=O)c1ccc(C)cc1)OCCO2	28%	-14	-6	-5%	-1.6	6%	-17%
